StopGo RLuc = Primary qHTS Assay for Foot and Mouth Disease Virus Antivirals against NCGC Sytravon and CBC Compound Libraries: Renilla Luciferase Signal. HEK cells with a luciferase reporter of 2A StopGo recoding. Potency, µM (series often up to 57.5 µM), for the others: at the top dose signal change, negative = less light. actives 0.32% (n = 120,000); active means well fitted falling curve with a large enough effect; inconclusive means small, poorly fitted or top-dose-only effect; inactive means no such curve, though single readings can be large or run the other way; also: nearly all actives have a fitted effect of over 55% in size; overnight with compound
StopGo FLuc = Primary qHTS Assay for Foot and Mouth Disease Virus Antivirals against NCGC Sytravon and CBC Compound Libraries: Firefly Luciferase Signal; Potency, µM (titrated, usually from 57.5 µM), without a hit: at the top dose signal change, negative = less light; HEK cells with a luciferase reporter of 2A StopGo recoding; actives 0.23% (n = 120,000); active = well fitted falling curve with a large enough effect; inconclusive = small, poorly fitted or top-dose-only effect; inactive = no such curve, though single readings can be large or run the other way; also: nearly all actives have a fitted effect of over 60% in size; overnight with compound
An asterisk follows results filed as active; ? = inconclusive; & = joins results of further samples; [ ] = another dose, or the depositor's remark. % is scaled to controls: 0 for no effect and ±100 for the full control effect; potency is read from the fitted curve at half-maximal effect. Only part of the results is shown (hit frequency here may not be typical).

SMILES	StopGo RLuc	StopGo FLuc
CCCCCCCCCCS(=O)(=O)CCSC(=N)N	-4%	20%
CCOC(=O)c1c(C)[nH]c(C)c1S(=O)(=O)N1CCN(c2ccccc2OC)CC1	10%	?
CCOC(=O)CSc1nc2cc3c(cc2c(=O)n1CCCCCC(=O)NCc1ccc(OC)cc1)OCO3	0%	-18%
Nc1nnnn1Cc1nnc(SCc2ccccc2F)n1-c1ccccc1	?	17%
CCN(Cc1ccccc1)Cc1c(O)ccc2c(=O)c(-c3ccc(Cl)cc3)c(C(F)(F)F)oc12	2%	4%
CC(=O)c1c[nH]c2ccccc12	7%	0%
CCOc1ccccc1C1CC(=O)N(Cc2ccccc2)c2c1c(C)nn2-c1nc(C)cc(C)n1 (stereo not given)	4%	?
Cc1cc(C)cc(NC(=O)Nc2ccc3nc(N4CCOCC4)cc(C)c3c2)c1	2%	-5%
Cc1cccc(C)c1OCC(=O)Nc1ccc(C(=O)Nc2ccccc2C(=O)O)cc1	30%	61%[activator]
CC(=O)N1CCc2c(sc3c2c(=O)n(Cc2ccccc2)c(=O)n3Cc2ccccc2C)C1	13%	-5%
CCCC(=O)N1CCN(c2nc3c(OC)ccc(C)c3s2)CC1	0%&-15%	1%&6%
O=C(CCc1ncc(-c2ccc(F)cc2F)o1)Nc1ccc(S(=O)(=O)N2CCCC2)cc1	0%	23%
Cc1noc(C)c1S(=O)(=O)NCCc1ccc(-n2cccn2)cc1	185%[activator]	8%
Cc1ccccc1NC(=O)c1ccc2c(c1)c(C)c(C)n2Cc1ccccc1	-2%	46%[activator]
Cn1c(=O)c2cc(C(=O)NC3CCCCCC3)sc2c2ccccc21	12%&3%	10%&-3%
O=C(CSc1ncc(-c2ccccc2)[nH]1)Nc1ccc(F)cc1F	5%	9%
CC(=O)N1c2ccccc2C(=O)C1N1CCN(c2cccc(C)c2C)CC1 (stereo not given)	3%	34%[activator]
CCn1cc(C(=O)NCCc2ccc(Cl)cc2)c(=O)c2cc(S(=O)(=O)N3CCOCC3)ccc21	-9%	-17%
CC(=O)NCc1c(I)c(NC(C)=O)c(I)c(C(=O)O)c1I	-3%	-7%[11.5 µM]
Cc1ccc(C)c(S(=O)(=O)NCCc2coc(-c3ccccc3)n2)c1	285%[activator]	6%
CC1Cc2cc(S(=O)(=O)NCc3ccccc3)ccc2N1C(=O)C1CCC1 (stereo not given)	0%	0%
CCOc1ccc(-n2cnc3scc(-c4ccc(Br)cc4)c3c2=O)cc1	-8%	-15%
Cc1cccc(-c2ocnc2C(=O)Nc2ccc(Cl)cc2)c1	22%	40%
CC1(C)C2CCC1(C)C(OC(=O)C[N+]1(CC(=O)OC3CC4CCC3(C)C4(C)C)CCCCC1)C2 (stereo not given)	?	?
Cc1ccc(CNc2ncnc3onc(-c4cc(F)cc(F)c4)c23)cc1	3%	-16%
COc1ccc(C2=NS(=O)(=O)N(C)C(C(=O)N3CCN(C)CC3)=C2)cc1	-8%	-10%
Cc1ccc(Cl)cc1-n1c(=O)cc(N2CCN(c3ccccc3)CC2)[nH]c1=O	-16%	-27%
Cc1ccc(CNC(=O)c2cccc(Nc3nc4ccccc4n4nnnc34)c2)cc1	-4%	64%[activator]
COc1ccc(NC(=O)CCSc2nnc3scc(-c4ccccc4)n23)cc1	27%	25%
COc1ccc(/C=C2\N=C(c3ccccc3Cl)NC2=O)cc1	0%	0%
CCC(CC)c1nnc(NC(=O)CCc2c(C)nc(C)[nH]c2=O)s1	-10%	0%
CC1CCN(c2nc3ccccc3nc2C(C#N)S(=O)(=O)c2cccc(Cl)c2)CC1 (stereo not given)	-2%	52%[activator]
Cn1c(=O)c2c(nc(NCc3ccco3)n2Cc2ccc(Cl)cc2)n(C)c1=O	-9%	-5%
CCCCC1(COC(=O)CCC(=O)O)C(=O)N(c2ccccc2)N(c2ccccc2)C1=O	11%	2%[11.5 µM]
COc1ccc(OC)c(NC(=O)Cn2ccc3cc(OC)ccc32)c1	8%	4%
O=C(Cc1ccc(F)cc1)NCc1nc2cccnc2n1Cc1ccc(F)cc1	-5%	-6%
Cc1cc(F)ccc1NC(=O)CCS(=O)(=O)c1ccc2c(c1)CC(C)N2C(=O)C1CC1 (stereo not given)	-1%	-18%
Cn1nnc(NC(=O)COc2ccc(C3CCCCC3)cc2)n1	0%	0%
CC(Nc1ccc(C(C)C)cc1)C(=O)Nc1ccc(Cl)cn1 (stereo not given)	6%	14%
Cc1csc2nc(COC(=O)c3ccccc3NC(=O)c3ccc(F)cc3)cc(=O)n12	-2%	-13%
Fc1ccc2[nH]c(-c3cccs3)cc2c1	-13%	45%[activator]
C=CCSc1nnc(NC(=O)c2cc(=O)c3ccc(C)cc3o2)s1	3%	10%
Cc1ccc(NC(=O)CSc2nnc(C)s2)c(C)c1	22%	35%[activator]
N#CC1=C(N)OC2=C(C(=O)CC(c3cccs3)C2)C1c1ccccc1 (stereo not given)	21%	7%
Cc1ccccc1-c1noc(CSc2nc3cc4c(cc3c(=O)n2Cc2ccco2)OCO4)n1	-2%	-3%
CCc1ccccc1NC(=O)Cn1c(=O)n(CCc2ccccc2)c(=O)c2ccccc21	2%	20%
CC(C)(CNC(=O)c1cc(-c2ccc(Cl)cc2)on1)N1CCOCC1	-8%	34%[activator]
NC(=O)NCc1ccc(C(=O)NCc2ccc(C(F)(F)F)cc2)cc1	-13%	-10%
CCOc1ccc(Nc2nc(-c3cc(C)ccc3C)cs2)cc1	-2%	174%[activator]
Cc1cc(Cl)ccc1S(=O)(=O)N(Cc1cccnc1)C1CC1	-14%	-6%
COc1ccc(S(=O)(=O)Cc2ccc(C(=O)N3CCN(c4cc(C)ccc4C)CC3)o2)cc1	2%	-3%
Cc1cc(O)c2c(O)c3c(O)cccc3cc2c1	-8%	-14%
CCOC(=O)C1=CN(c2ccccc2)C=C(C(=O)OCC)C1c1ccc(F)cc1	6%	8%
Cc1ccc(SCCNC(=S)Nc2ccc(Nc3ccccc3)cc2)cc1	-13%	-6%
COc1cc(-c2cc3n(C)c(C)c(CCC(=O)NCc4ccccc4)c(=O)n3n2)cc(OC)c1OC	12%	-3%
COc1ccccc1-c1nnc(SC(C(=O)N2CCCC2)c2ccccc2)n1C (stereo not given)	-1%	0%
COC(=O)c1cc(S(=O)(=O)NCC2CCN(Cc3cccc(F)c3)CC2)cn1C	-11%	-8%
CCCc1[nH]nc2c1C(c1ccccc1C(F)(F)F)C(C#N)=C(N)O2 (stereo not given)	-14%	-19%
CCCCn1c(N)c(N(CCOC)C(=O)c2ccc(-c3ccc(Cl)cc3)o2)c(=O)[nH]c1=O	0%	0%
CCOC(=O)c1cc2cc(C#N)ccc2[nH]1	-4%[1.06 µM]	0%
Following part.
SMILES	StopGo RLuc	StopGo FLuc
O=C(O)c1cccnc1SC(F)(F)F	9%	0%
COc1ccc(OC)c(NC(=O)CCNS(=O)(=O)c2ccc3c(c2)oc(=O)n3C)c1	-5%	-15%
Cc1ccc2oc(C(=O)Nc3ccc(C(N)=O)cc3)cc(=O)c2c1	-1%	11%
O=C(CN1CCCC1c1ccc(F)cc1)Nc1ccc(F)c(F)c1 (stereo not given)	0%	4%
COc1cc(-c2nnc(SCCOc3ccccc3)o2)cc(OC)c1OC	3%	-2%
COC(=O)[C@]12C[C@H](CC(=O)N3CCN(C(=O)C4CC4)CC3)C(=O)N(Cc3ccco3)C1=C[C@H](COCc1ccccc1)O[C@@H]2C	5%	-2%
COc1ccc(-n2c(=O)c3ccc(C(=O)NCc4ccc(C)cc4)cc3n(Cc3cccc(Cl)c3)c2=O)cc1	11%	5%
CC(Sc1nc2c([nH]c3ccccc32)c(=O)n1-c1ccccc1)c1ccccc1 (stereo not given)	-8%	18%
Cc1n[nH]c(C)c1S(=O)(=O)N1CCC(C)CC1	27%	8%
CCc1cccc(C)c1NC(=O)Cn1ccn(-c2ccccc2)c(=O)c1=O	-5%	-8%
Cc1oc2cc(OCC(=O)NCCC(=O)O)ccc2c(=O)c1-c1ccc(Cl)cc1	-4%	-10%
CCC(C)(CC(=O)Nc1ccc(NC(C)=O)cc1)Cc1nc2ccccc2s1 (stereo not given)	0%	0%
CNC(=O)NC(=O)C(C)Cl (stereo not given)	-4%	-3%
Cc1cccc(CN2CCN(C(c3ccccc3)c3ccc(Cl)cc3)CC2)c1 (stereo not given)	-1%	-7%
COc1ccc(CCNC(=O)c2c(C)nn(-c3ccc(F)cc3)c2-n2cccc2)c(OC)c1OC	20%	19%
COc1ccc(-c2cc(=O)c3cc(NC(=O)c4cc(OC)c(OC)c(OC)c4)ccc3o2)cc1	18%	37%[activator]
COc1ccc(CCNC(=O)CSc2ncc3c(n2)-c2cc(Cl)ccc2N(Cc2ccccc2)S3(=O)=O)cc1OC	-23%	-17%
CCOC(=O)C1CCN(CCC(=O)Nc2ccc(Br)c(C)c2)CC1	-7%	-9%
COC(=O)c1cccc(COC(=O)C2=NN(C3CCS(=O)(=O)C3)C(=O)CC2)c1 (stereo not given)	-3%	8%
c1ccc(-c2nnc(CSc3nnnn3C3CCCC3)o2)cc1	18%	83%[activator]
C=C(Cl)CN1CCN(CC2CCCO2)CC1 (stereo not given)	5%	5%
COc1ccc(OC)c(NC(=O)CSc2c3c(nc4cc(Cl)ccc24)CCCC3)c1	-16%	-9%
Cc1cccc(N2CCN(C(=O)C3CCN(S(=O)(=O)c4c(C)noc4C)CC3)CC2)c1C	?	?
COc1ccc(-n2cc(-c3ccc4c(c3)OCO4)n(CC(=O)Nc3cccc(C)c3C)c2=O)c(OC)c1	-29%	?
Cc1c(C)c2cc(Cl)c(OC(C)C(=O)NCc3ccccn3)cc2oc1=O (stereo not given)	-5%	7%
COc1ccc(C2=C(C)C(=O)N(Cc3ccc(C(=O)NCc4ccccc4C)cc3)S2(=O)=O)cc1	41%[activator]	-12%
CN(C)C(=O)c1ccc(Br)cc1F	6%	8%
CSc1ccccc1NC(=O)c1ccc(F)c(F)c1	-2%	7%
COc1ccc(NC(=O)Cn2c(=O)c3ccccc3n3nncc23)c(OC)c1	-20%	-32%
Cc1c(C(=O)N2CCc3ccccc3C2)oc2ccc(F)cc12	14%	0%
C#CCNC(=O)CN1CCN(C(=O)C2CCCC2)CC1	-8%	0%
CCc1nn2c(=O)cc(CN(CC)Cc3ccc(OC)cc3)nc2s1	-5%	1%
CCOc1ccc(NC(=O)c2cc3cc4ccc(C)cc4nc3o2)cc1	-2%	14%
CC(C)(N)Cc1ccc(Cl)cc1	-10%	14%[11.5 µM]
Cc1nn2c(=O)cc(COc3ccc(/C=C(\C#N)C(=O)Nc4ccc(F)cc4)cc3)nc2s1	-6%	-14%
Cc1ccc(-c2cnc(CCC(=O)NC(C)c3ccc4c(c3)NC(=O)CO4)o2)cc1C (stereo not given)	7%	7%
Cc1cccc(CSc2nc3ccncc3n2Cc2ccc(C(=O)NCCN(C)C)cc2)c1	-6%	2%
CC(=O)Nc1ccc(NC(=O)C2CCCN(S(=O)(=O)c3ccc4c(c3)CCCC(=O)N4)C2)cc1 (stereo not given)	-1%	4%
COc1ccccc1-c1nnc(SCCOc2ccccc2C)o1	4%	6%
Cc1ccc(S(=O)(=O)N2CCC(C(=O)N3CCC(CCc4ccccc4)CC3)CC2)c(C)c1	?	?
CCCCn1nc(C(=O)Nc2cc(OC)ccc2OC)c2ccccc2c1=O	16%	16%
COc1ccc(NC(=O)c2ncoc2-c2ccc(OC)c(OC)c2)c(OC)c1	-10%	-3%
O=CN1CCN(C(C(=O)O)c2c[nH]c3cc(OCc4ccccc4)ccc23)CC1 (stereo not given)	-7%	-43%

In the list so far, these contain an aryl thioether with sulfur outside any ring:
SMILES	StopGo RLuc	StopGo FLuc
CCOC(=O)CSc1nc2cc3c(cc2c(=O)n1CCCCCC(=O)NCc1ccc(OC)cc1)OCO3	0%	-18%
Nc1nnnn1Cc1nnc(SCc2ccccc2F)n1-c1ccccc1	?	17%
O=C(CSc1ncc(-c2ccccc2)[nH]1)Nc1ccc(F)cc1F	5%	9%
COc1ccc(NC(=O)CCSc2nnc3scc(-c4ccccc4)n23)cc1	27%	25%
C=CCSc1nnc(NC(=O)c2cc(=O)c3ccc(C)cc3o2)s1	3%	10%
Cc1ccc(NC(=O)CSc2nnc(C)s2)c(C)c1	22%	35%[activator]
Cc1ccccc1-c1noc(CSc2nc3cc4c(cc3c(=O)n2Cc2ccco2)OCO4)n1	-2%	-3%
Cc1ccc(SCCNC(=S)Nc2ccc(Nc3ccccc3)cc2)cc1	-13%	-6%
COc1ccccc1-c1nnc(SC(C(=O)N2CCCC2)c2ccccc2)n1C (stereo not given)	-1%	0%
O=C(O)c1cccnc1SC(F)(F)F	9%	0%
COc1cc(-c2nnc(SCCOc3ccccc3)o2)cc(OC)c1OC	3%	-2%
CC(Sc1nc2c([nH]c3ccccc32)c(=O)n1-c1ccccc1)c1ccccc1 (stereo not given)	-8%	18%
COc1ccc(CCNC(=O)CSc2ncc3c(n2)-c2cc(Cl)ccc2N(Cc2ccccc2)S3(=O)=O)cc1OC	-23%	-17%
c1ccc(-c2nnc(CSc3nnnn3C3CCCC3)o2)cc1	18%	83%[activator]
COc1ccc(OC)c(NC(=O)CSc2c3c(nc4cc(Cl)ccc24)CCCC3)c1	-16%	-9%
CSc1ccccc1NC(=O)c1ccc(F)c(F)c1	-2%	7%
Cc1cccc(CSc2nc3ccncc3n2Cc2ccc(C(=O)NCCN(C)C)cc2)c1	-6%	2%
COc1ccccc1-c1nnc(SCCOc2ccccc2C)o1	4%	6%

Source: PubChem
